CtBP-E1A inh – blocks the CtBP interaction with E1A. AlphaScreen GST-E1A/His-CtBP binding, 1536-well; stronger effect = lower value; control for the full effect not named in the record. activity change, % (no concentration beside the values). 340,000 tested, 0.49% active. AID 651724; in the data active means activity change below about -65%; inconclusive means about -30% to -65%; inactive means above about -30%; further: on the % scale 0 is the no-effect control and ±100 the full control effect; compound concentration not given in the record
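AlphaScreen with 125 nM GST-E1A and 125 nM His-CtBP (5X stocks) in Tris pH 8.0, 300 mM NaCl, BSA, Tween 20, TCEP. Compounds preincubated 2 h at 37 deg C, then glutathione donor/nickel acceptor beads added for 1 h at 37 deg C in dark.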
Six1-Eya2 inh – blocks human Six1 binding to Eya2 | 360,000 tested, 0.56% active | AlphaScreen GST-Six1/His-Eya2 binding, biochemical; stronger effect = lower value; control for the full effect not named in the record | AID 651725 | activity change, % (test concentration not listed); in the data active = activity change below about -65%; inconclusive = about -30% to -65%; inactive = above about -30%; further: on the % scale 0 is the no-effect control and ±100 the full control effect; compound concentration not given in the record
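AlphaScreen with GST-Six1 and His-Eya2 (5X mix: 250 nM and 500 nM), glutathione donor and nickel acceptor beads; buffer 50 mM Tris pH 8.0, 300 mM NaCl, 1 mM TCEP; 1 h at 37 C in the dark.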
D2 potentiator – potentiates the human D2 dopamine receptor allosterically; P14416; DiscoveRx D2 beta-arrestin cells, luminescence, 90 min; 100% = 57 uM dopamine signal; AID 624464; 360,000 tested, 0.23% active; potentiation, % (concentration not given with the values); active = potentiation of 50% or more; inconclusive = 30% to 50%; inactive = 30% or less;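 further: compound concentration not given in the record; tested on top of an EC20 dose of dopamine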
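PathHunter D2 cells, attached overnight at 37 deg C, received compound in DMSO plus dopamine at EC20 (50 nM final) for 90 min at 37 deg C. Beta-arrestin recruitment was read as luminescence after 1 h with detection reagent at ambient temperature.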
TRPML1 blocker – blocks the human TRPML1 channel | AID 624415 | TRPML1-inducible cells, Ca2+ dye fluorescence, FDSS; stronger effect = lower value; inhibition of EC80 agonist-evoked calcium signal | Q9GZU1 | activity change, negative = inhibition, % (test concentration not listed) | 390,000 tested, 0.02% active; in the data active means activity change below about -50%; inconclusive means about -30% to -50%; inactive means above about -30%;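 further: stimulus is agonist 54-4 at its EC80 concentration; on the % scale 0 is the no-effect control and ±100 the full control effect; compound concentration not given in the record; the text of the record puts the active cut at -80%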
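Calcium fluorescence in TRPML1-DL cells induced overnight with Tet: a 110 s read after compound pin addition, then a 110 s antagonist read after challenge with 54-4 at 4 uM final (EC80).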
TRPV1 PAM – human TRPV1 potentiation | Q8NER1 | potentiation, % at 8.33 µM | TRPV1-expressing cells, Fluo-8 calcium influx, capsaicin EC20 potentiation; host cell line not named in the record; control for the full effect not named in the record | AID 540277 | 320,000 tested, 0.02% active; active means potentiation above 80%; inconclusive means 30% to 80%; inactive means below 30%; further: 0% is about no effect
Target sequence (Q8NER1 whole entry, looked up): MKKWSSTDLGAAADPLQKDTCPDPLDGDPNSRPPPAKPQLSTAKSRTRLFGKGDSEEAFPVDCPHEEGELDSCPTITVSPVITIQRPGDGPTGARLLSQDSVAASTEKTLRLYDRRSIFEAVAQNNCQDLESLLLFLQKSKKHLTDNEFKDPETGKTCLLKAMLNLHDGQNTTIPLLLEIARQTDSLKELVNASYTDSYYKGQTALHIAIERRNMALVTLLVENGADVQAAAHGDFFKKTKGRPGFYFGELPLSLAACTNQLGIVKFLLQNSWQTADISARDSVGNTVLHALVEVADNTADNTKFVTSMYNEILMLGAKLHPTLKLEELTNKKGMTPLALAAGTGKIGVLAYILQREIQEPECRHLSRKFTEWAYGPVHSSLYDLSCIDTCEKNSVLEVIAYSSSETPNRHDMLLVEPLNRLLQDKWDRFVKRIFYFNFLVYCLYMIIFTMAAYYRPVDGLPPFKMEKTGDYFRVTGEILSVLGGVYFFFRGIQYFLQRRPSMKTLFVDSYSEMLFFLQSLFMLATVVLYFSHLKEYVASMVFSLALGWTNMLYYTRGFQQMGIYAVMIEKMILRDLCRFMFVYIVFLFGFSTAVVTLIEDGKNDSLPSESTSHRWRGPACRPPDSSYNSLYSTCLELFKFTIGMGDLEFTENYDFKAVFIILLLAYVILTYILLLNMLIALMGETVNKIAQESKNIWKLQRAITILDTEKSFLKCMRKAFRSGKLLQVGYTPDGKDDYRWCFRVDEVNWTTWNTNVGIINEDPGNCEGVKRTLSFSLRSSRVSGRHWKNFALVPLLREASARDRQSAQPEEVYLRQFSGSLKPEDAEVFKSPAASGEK
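Cells expressing TRPV1 were dye-loaded with Fluo-8 and read kinetically: 10 s baseline, 3 min after compound (agonist portion), then 2 min after EC20 capsaicin (allosteric enhancer portion). Calcium-bound dye fluorescence at 480/520 nm.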
TRPML1 ag – activates the human TRPML1 channel. 410,000 tested, 0.12% active. TRPML1-expressing cells, Ca2+ dye fluorescence, FDSS; host cell line not named in the record; reference of the full effect not given here. Q9GZU1. activation, % (test concentration not listed). AID 624414; in the data active = activation above about 50%; inconclusive = about 30% to 50%; inactive = below about 30%; further: 0% is about no effect; the text of the record puts the active cut at 80%
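Tetracycline-induced TRPML1-DL cells are seeded and incubated overnight before loading with a no-wash Ca2+ dye and quencher. Agonist activity is taken from the 110 s fluorescence read following compound pin-transfer on an FDSS, before EC80 54-4 challenge.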
The depositor's hits bear a star; ? = inconclusive; . = no result given.

SMILES	CtBP-E1A inh	Six1-Eya2 inh	D2 potentiator	TRPML1 blocker	TRPV1 PAM	TRPML1 ag
COc1cccc(CNC(=O)C2CCCN2S(=O)(=O)c2ccc3c(c2)C(C)(C)C(=O)N3C)c1 (stereo unspecified)	5	1	1	-6	15	-0.2
NS(=O)(=O)c1ccc(-c2ccc(/C=C3\SC(=O)NC3=O)o2)cc1	?	-14	-4	30	-32	1.1
CN(CC(=O)Nc1ccc(F)c(F)c1F)C(=O)C1CC(=O)N(C2CCCC2)C1 (stereo unspecified)	-1	-7	-39	5	-15	0.5
Cc1ccc(-c2cc(C(F)(F)F)c(C#N)c(SCCC#N)n2)o1	9	6	0	5	-3	1.5
CC(C)N(C(=O)C1CC(=O)OC12CCCCC2)C(C)C (stereo unspecified)	1	-1	-7	-4	-7	-0.8
O=C(Cn1c(=O)sc2ccccc21)Nc1ccccc1C(=O)O	4	2	14	-2	6	1.0
CCOC(=O)/C=C/C(=O)Nc1ccc(Oc2ccccc2)cc1	6	-6	-15	20	-10	-1.0
Cn1nnnc1SCC(=O)NCc1cccc(C(=O)O)c1	7	0	3	-12	12	-0.4
Cc1nnc(SCC(=O)NC2(C#N)CCCCC2)n1N	5	30	-15	16	.	0.1
CC(C)c1ccc(OCC(=O)NC2CCCC2)cc1	7	5	-2	-9	5	-0.1
COc1ccc(S(=O)(=O)Nc2ccc(N3CCOCC3)cc2)cc1[N+](=O)[O-]	7	9	4	1	2	0.0
CCn1c(CC(=O)Nc2ccc(F)cc2)nnc1SCC(=O)NC1CCCC1	-5	-2	-2	-4	5	0.5
Cc1ccc(O)c(NC(=O)CSc2n[nH]c(C)c2[N+](=O)[O-])c1	-5	-17	6	-6	18	2.2
S=c1[nH]nc(C2CCCCC2)n1/N=C/C=C/c1ccccc1	-7	-10	-27	-12	-13	0.5
Cc1ccccc1S(=O)(=O)N(C)C[C@H]1OCc2cnnn2CCCC(=O)N([C@@H](C)CO)C[C@H]1C	5	-2	3	7	.	0.3
CCCOc1ccc(OCCCCNC(C)CC)cc1 (stereo unspecified)	4	-2	-10	-22	-11	1.6
COc1ccc(-c2cc(CNS(=O)(=O)c3cc(OC)ccc3OC)on2)cc1	-3	-1	0	19	4	0.7
CON(C)C(=O)CCN(Cc1ccccc1)C(=O)OC(C)(C)C	3	-5	-6	-17	.	-0.3
O=C(CCN1C(=O)c2ccccc2C1=O)N1CCN(c2ccccn2)CC1	5	1	1	-3	4	1.9
Cc1ccc(NN=C2c3ccccc3-c3ccccc32)cc1	-21	-20	-16	9	-3	1.3
Cc1c(C(=O)OCc2ccccc2)[nH]c2c1C(=O)CC(c1ccco1)C2 (stereo unspecified)	-1	-13	-3	0	-4	1.2
OCCOc1ccc(C2=NCCO2)cc1	7	1	-10	18	5	0.1
COc1ccc(NC(=O)C2Cc3c(-c4ccc5c(c4)OCO5)ccnc3O2)cn1 (stereo unspecified)	-25	-24	-4	.	.	-0.6
O=C(COc1ccc2ccc(=O)oc2c1)N1CCc2ccccc21	10	-6	-4	16	-18	-0.1
Cc1ccc([N+](=O)[O-])c(-c2n[nH]c(=S)n2-c2cccc(Cl)c2)c1	3	-9	-8	-9	2	0.9
Cc1nn(Cc2cccc(C(=O)NC3CCCCC3)c2)c(C)c1Cl	-5	14	-10	-6	17	0.2
Cc1ccc(S(=O)(=O)NC(C)C(=O)N2CCOCCOCCOCC2)cc1 (stereo unspecified)	7	-9	-3	-1	17	-0.3
CCn1cc(/C=N/NS(=O)(=O)c2ccc(C)cc2)c(C)n1	-2	0	21	-3	29	-1.3
Cc1cc(C)cc(NS(=O)(=O)c2c(C(=O)N3CCCCCC3)c(C)n(C)c2C)c1	-2	1	-5	-5	2	1.5
CCc1ccc(N2CC(C(=O)Nc3cccc(C(=O)NC4CC4)c3)CC2=O)cc1 (stereo unspecified)	-6	0	3	-10	6	2.5
O=C(CNC(=O)c1ccncc1)N/N=C/c1cc(Br)ccc1OCc1ccccc1	-19	-24	-12	-2	14	0.1
O=C(CN1C(=O)NC2(CCCC2)C1=O)NCCc1ccc(Cl)cc1Cl	-4	4	-5	55	-6	2.4
Cc1nnc(SCC(=O)NCCC2=CCCCC2)[nH]c1=O	5	4	-4	1	.	-0.6
CCOC(=O)C(=CNc1cc(C)ccc1C)C(=O)OCC	-9	19	13	12	-14	4.1
CCOC(=O)c1cnc2c(ccc3ccccc32)c1NCCN(C)C	.	4	-79	.	26	.
CCCC1NC(=O)c2cccnc2-n2c1nc1ccc(Br)cc1c2=O (stereo unspecified)	3	0	-2	0	.	0.0
COc1ccc(CC(=O)NCc2nnc(SCCOc3ccccc3)n2C)cc1	-8	-16	-3	-4	-13	1.5
CCOC(=O)C1=C(CS(=O)(=O)c2ccccc2)NC(=O)NC1c1ccc(OC)c(OC)c1 (stereo unspecified)	-14	1	-8	15	.	0.7
CCOC(=O)c1c(NC(=O)CC)sc(C(=O)NC2CCCC2)c1C	21	11	-1	-9	-2	-0.6
Cc1ccc(N(C(=O)c2snc(C(N)=O)c2N)C(C(=O)NC2CCCC2)c2ccco2)cc1 (stereo unspecified)	-20	-8	-6	-12	20	2.1
CC(C)(O)C1=C[N+](=O)CC=C1	10	17	.	.	.	-0.1
Cc1cc(=O)oc2cc(OCC(=O)NCCCN3CCOCC3)ccc12	-4	-6	-8	17	-4	-0.5
CN(Cc1cccs1)CC(O)COCc1ccco1 (stereo unspecified)	0	1	-16	16	-16	-0.4
Cn1c(=S)[nH]c2scc(-c3cccs3)c2c1=O	-13	-15	67*	9	-3	-0.9
CC(=O)Nc1ccc(NC(=O)c2cc(S(=O)(=O)N3CCCCC3)ccc2C)cc1	-3	2	-3	-7	-4	0.2
C=C(C)Cn1c(SCC(=O)N/N=C/c2ccccc2)nc2ccccc2c1=O	-10	13	3	0	-9	3.3
C=CCOc1cccc(C2/C(=C(\O)c3ccc4c(c3)OCCO4)C(=O)C(=O)N2CCN2CCOCC2)c1 (stereo unspecified)	4	-1	-8	-7	-6	-0.8
CC(OC(=O)c1cc(S(=O)(=O)N2CCOCC2)ccc1F)C(=O)NC1CCCC1 (stereo unspecified)	.	1	6	-6	-7	-0.5
Cc1cc(C)cc(N2CC(C(=O)Nc3cc(C)on3)CC2=O)c1 (stereo unspecified)	-1	-6	-2	2	-1	2.0
COc1ccc(S(=O)(=O)N2CCOCC2)cc1NC(=O)CSc1n[nH]c(=O)n1C1CC1	-18	-1	-3	25	1	0.5
Cc1ccc(C(=O)Nc2ccccc2-c2ccccc2)cc1S(=O)(=O)Nc1ccccc1	-1	-9	-3	14	.	1.4
O=C(NCCOCCOCCNC(=O)c1cccnc1)c1cccnc1	5	4	0	2	5	0.0
CCCC(C)NC(=O)CSc1nnc2ccccn12 (stereo unspecified)	3	-2	-30	25	-1	0.8
CCN(CCCNC(=O)CN(C)S(=O)(=O)c1cccc2nsnc12)c1cccc(C)c1	-16	-21	-26	-5	-3	1.0
N#Cc1cccc(NC(=O)Cn2c3[n+](c4ccc(C(F)(F)F)cc42)CCCCC3)c1	12	11	-44	-5	4	-0.5
Cc1ccc(-n2c(SCC(=O)N3CCCCC3)nc(O)c(Cc3ccccc3)c2=O)cc1	.	1	-3	32	-2	0.3
COc1cc2c(cc1OC)[C@@H](NC(=O)CCc1ccccc1)[C@H](O)C2	5	0	-3	-1	.	-0.9
CCC(CO)Oc1cc(NC(=O)c2cccc([N+](=O)[O-])c2)c2ncn(C(C)C)c2c1 (stereo unspecified)	2	-3	-1	-1	.	-0.2
Cc1cc(/C=N/N2CCN(C)CC2)c(C)n1-c1ccc(Cl)cc1	-13	-7	-6	19	.	1.4
COc1ccc(NC(=O)COC(=O)CCOc2ccccc2C)cc1Cl	6	-8	-11	-4	-12	0.9

Five entries from above, in markdown:
| smiles | CtBP-E1A inh | Six1-Eya2 inh | D2 potentiator | TRPML1 blocker | TRPV1 PAM | TRPML1 ag |
| --- | --- | --- | --- | --- | --- | --- |
| Cc1ccc(-n2c(SCC(=O)N3CCCCC3)nc(O)c(Cc3ccccc3)c2=O)cc1 | . | 1 | -3 | 32 | -2 | 0.3 |
| Cc1cc(C)cc(N2CC(C(=O)Nc3cc(C)on3)CC2=O)c1 (stereo unspecified) | -1 | -6 | -2 | 2 | -1 | 2.0 |
| C=C(C)Cn1c(SCC(=O)N/N=C/c2ccccc2)nc2ccccc2c1=O | -10 | 13 | 3 | 0 | -9 | 3.3 |
| Cn1c(=S)[nH]c2scc(-c3cccs3)c2c1=O | -13 | -15 | 67* | 9 | -3 | -0.9 |
| CCN(CCCNC(=O)CN(C)S(=O)(=O)c1cccc2nsnc12)c1cccc(C)c1 | -16 | -21 | -26 | -5 | -3 | 1.0 |

Next section
SMILES	CtBP-E1A inh	Six1-Eya2 inh	D2 potentiator	TRPML1 blocker	TRPV1 PAM	TRPML1 ag
C=CSc1sc(Cl)c(N2CCOCC2)c1[N+](=O)[O-]	22	-6	-4	11	-8	2.9
N=C(N)Cc1ccccc1Sc1ccccc1	-19	11	-18	-2	-9	1.5
S=c1nc(C23CC4CC(CC(C4)C2)C3)[nH][nH]1	10	6	-12	-4	1	0.4
C#CCOCCOCCOCCNc1nc(N2CCN(C(=O)[C@H](CCCN=C(N)N)n3cc(C(N)[C@@H](C)CC)nn3)CC2)nc(N2CCN(C(=O)[C@H](CC(N)=O)n3cc([C@@H](N)C(C)C)nn3)CC2)n1 (stereo partly specified)	-9	-6	-7	-6	.	-0.4
C[C@H](CO)N1C[C@H](C)[C@@H](CN(C)S(=O)(=O)c2cccs2)Oc2c(NC(=O)C3CCCCC3)cccc2C1=O	-24	-8	7	-1	.	0.0
COC(=O)c1ccc(CN2CCCC(CNC(=O)Cc3ccc(OC)cc3)C2)cc1 (stereo unspecified)	10	1	-1	5	-4	-0.3
O=C(Nc1cc(C(F)(F)F)ccc1Cl)C(NCc1ccccc1)c1ccccc1 (stereo unspecified)	13	14	-17	16	2	3.7
O=C(CSc1nc(=O)n(Cc2ccccn2)c2c1CCC2)Nc1ccc(F)cc1F	-4	6	0	-2	-12	-1.0
CCOc1ccccc1C(=O)NCC(=O)Nc1ncccc1C	7	9	-6	13	18	0.3
CC(OC(=O)C1CCN(S(=O)(=O)c2ccc3c(c2)OCCO3)CC1)C(=O)N(C)c1ccccc1 (stereo unspecified)	.	0	8	-3	-1	-1.2
O=C1c2ccccc2C(=O)N1CCCn1nnc(-c2ccc(N3CCOCC3)cc2)n1	-5	3	8	-4	-1	-0.3
O=C(NCc1ccco1)c1noc2c1CCCC2	6	-2	-3	-10	5	-0.1
Cc1nn(C(C)C)c(C)c1CN1CCCC(C(=O)c2cccc(OC(C)C)c2)C1 (stereo unspecified)	-17	-16	-13	5	4	0.2

4 entries from above, arranged by molar mass, smallest number first:
SMILES	CtBP-E1A inh	Six1-Eya2 inh	D2 potentiator	TRPML1 blocker	TRPV1 PAM	TRPML1 ag
N=C(N)Cc1ccccc1Sc1ccccc1	-19	11	-18	-2	-9	1.5
CCOc1ccccc1C(=O)NCC(=O)Nc1ncccc1C	7	9	-6	13	18	0.3
O=C(Nc1cc(C(F)(F)F)ccc1Cl)C(NCc1ccccc1)c1ccccc1 (stereo unspecified)	13	14	-17	16	2	3.7
O=C(CSc1nc(=O)n(Cc2ccccn2)c2c1CCC2)Nc1ccc(F)cc1F	-4	6	0	-2	-12	-1.0

Screening data from PubChem.
